High-throughput results deposited in PubChem BioAssay by ICCB-Longwood Screening Facility, Harvard Medical School.
Anaer choline gr = inhibitors of anaerobic choline-dependent gram-negative bacterial growth | Gram-negative bacterium anaerobic choline minimal medium, absorbance growth; active compounds read low; many inactives read as strong as hits in the columns shown | calls only | actives 0.2% (n = 55,000) | AID 1963822;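 active means growth z-score on choline under -2 at 7 or 20 h with little or no fall on glycerol, limits in tiers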;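 further: stock transfer was 300 nL into about 50 µL; the organism is E. coli; final concentration not given here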
Anaer choline gr early = also measured in Anaer choline gr; calls as there; z-score; measured here: choline growth z-score, timepoint 1;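 score of optical density at 7 h as mean of two plates; lower means less growth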
The depositor's hits bear a star; i = inactive; & = joins results of further samples. Some of the compounds tested, so the mix of outcomes need not match the whole.

SMILES | Anaer choline gr | Anaer choline gr early
CCCCc1nc2c3ccccc3n(CC(=O)c3c[nH]c4ccccc34)c(=O)n2n1 | i | -0.36
Cc1cc(N)c2ccccc2[n+]1CCCCCCCCCC[n+]1c(C)cc(N)c2ccccc21 | i | -1.55&-2.99
COC(=O)c1ccc2c(=O)n(CCN3CCc4ccccc4C3)c(=S)[nH]c2c1 | i | 1.2
O=C(NCCN1CCCC1)c1ccc(NC(=O)N2CCCCc3ccccc32)cc1 | i | 1.14
CCOC(=O)c1nc(NC2CC2)c2c(C)noc2n1 | i | -2.61
CCC(C)Cn1c(C2CCCO2)nc2ccccc21 (configuration not stated) | i | 0.04
CCOC(=O)c1ccc(Nc2c(CC)c(C)nc3nc(-c4ccccc4)nn23)cc1 | i | 0.22
COCCn1c(CNC(=O)c2ccccc2Br)nc2cccnc21 | i | -0.04
CCN(CC)CCCNC(=O)C1CCN(c2ccc3nnc(C)n3n2)CC1 | i | 0.16
O=C(CSc1nnc2n1CCN2c1ccccc1)OCc1ccccc1 | i | 0.48
CCS(=O)(=O)c1nc2ccc(NS(=O)(=O)c3c(C)n[nH]c3C)cc2s1 | i | 0.04
CCCCC/C=C\C\C=C/C=C/C=C/[C@@H](SC[C@H](N)C(=O)NCC(=O)O)[C@@H](O)CCCC(=O)O | i | 0.41
Cc1sc(-c2noc(C3CC3)n2)cc1S(=O)(=O)N1CCC(C(=O)NC2CCC(C)CC2)CC1 (configuration not stated) | i | 0.27
COc1ccc(-c2ccc(=O)n(CCNS(=O)(=O)c3ccc4c(c3)CCN4C(C)=O)n2)cc1 | i | -0.23
CCCn1c(=O)c(-c2ccc(C(=O)N3CCN(c4ccccc4F)CC3)cc2)nc2ccccc21 | i | -0.19
Cc1ccc(-c2noc(C3CCCN3C(=O)C3CCN(S(=O)(=O)c4ccc(C)cc4)CC3)n2)cc1 (configuration not stated) | i | -0.21
Cc1cccc(-n2ncc3c2ncn2nc(-c4ccccc4Cl)nc32)c1 | i | 0.08
CCOc1cccc(C2N=C(N)Nc3nc4ccccc4n32)c1 (configuration not stated) | i | 0.32
O=C(NC1CCCCC1)N1CCN(c2cc(-c3cccc(F)c3)ncn2)CC1 | i | -0.18
Cc1ccccc1S(=O)(=O)Nc1cccc(C(=O)N2CCCC2C(=O)NC2CCCC2)c1 (configuration not stated) | i | 1.31
CCS(=O)(=O)c1ccc(-c2cccc(NC(=O)C3CCCCC3)c2)nn1 | i | 1.46
Cc1sc(-c2nc(C(C)C)cs2)cc1S(=O)(=O)NCc1ccc(N(C)C)cc1 | i | 0
O=S1(=O)N=CN(Cc2ccccc2)c2ccccc21 | i | -1.5
Cc1ccc(OCc2nn3c(-c4ccoc4C)nnc3s2)cc1 | i | -0.65
COc1cc(OC)c(NC(=O)N2CCCCCC2c2cccs2)cc1Cl (configuration not stated) | i | 0.91
CCCN1CCCCC1c1nc(-c2ccncc2)no1 (configuration not stated) | i | -0.2
Cc1nn(-c2ccccc2)cc1C(=O)N1CCC(CC(=O)NCc2ccccc2)CC1 | i | 0.25
C=CCn1c(SCC(=O)N2CCCC2)nnc1-c1cc2ccccc2o1 | i | -1.03
CC(=O)N1CCSc2ccc(S(=O)(=O)Nc3ccc(Cl)cc3)cc21 | i | -0.12
Cc1[nH]nc2c1C(c1ccc(OC(C)C)cc1)CC(=O)N2 (configuration not stated) | i | 0.8
CC(C)NS(=O)(=O)c1cc2c3c(c1)CC(=O)N3CCC2 | i | -0.39
Cc1ccc(CNC(=O)NCC(c2cccnc2)c2c[nH]c3ccccc23)cc1 (configuration not stated) | i | 0.88
O=S(=O)(c1ccc2c(c1)CCC2)N1CCOc2ccc(COCc3ccc(F)cc3)cc2C1 | i | 2.08
Cc1ccc2oc(C(=O)NCC(c3ccc(C(C)(C)C)cc3)N(C)C)cc(=O)c2c1 (configuration not stated) | i | 0.52
O=C(NC1CC1)C1CCCN(C(=O)c2ccoc2)C1 (configuration not stated) | i | 0.35
COc1cc(NC(=O)c2nnn(-c3cccc(Cl)c3C)c2N)cc(OC)c1 | i | 0.95
Cc1cccc(-c2nc3sc(N(C)CC(=O)N4CCN(c5ccccn5)CC4)nn3c2NC(C)(C)C)c1 | i | 0.58
CN1CCN(S(=O)(=O)c2ccc3c(c2)N(Cc2noc(C4CCC4)n2)C(=O)CO3)CC1 | i | -0.04
CC(C)CC(=O)Nc1ccc(S(=O)(=O)N2CCCC2c2nc(-c3ccc(F)cc3)no2)cc1 (configuration not stated) | i | -1.59
COc1ccc(-c2nnc3sc(-c4ccncc4)nn23)cc1OC | i | -0.11
Brc1ccc(-c2noc(Cc3nc(-c4ccc5c(c4)OCO5)cs3)n2)cc1 | i | 1.94
Fc1cccc(Nc2c3c(nc4ncnn24)CCCC3)c1 | i | -0.86
CCCSc1ccc2nc(NC(=O)OC)[nH]c2c1 | i | 0.95&0.2&0.72
Cc1c(S(=O)(=O)NCC2CC2)c(C)n(C)c1-c1nnc(C2CCC2)o1 | i | -0.79
O=C(Nc1ccc2c(c1)OCCO2)c1cc(-c2cccnc2)on1 | i | 1.05
CCc1ccc(C2C(c3ccccc3)=C(O)C(=O)N2CCc2ccccc2)cc1 (configuration not stated) | i | 0.8
CCOc1ccc(-n2nc(CO)c(C(=O)NCC3CCCO3)n2)cc1 (configuration not stated) | i | -0.28
CCc1ccc(NC(=O)n2ncc3c(C)cccc32)cc1 | i | 1.27
Cc1ccc(-c2cc3c4nnc(CCC(=O)N5CCN(C6CCCCC6)CC5)n4ccn3n2)cc1C | i | -0.28
COc1ccc(NS(=O)(=O)c2cc(-c3nc(C(C)(C)C)cs3)cs2)c(OC)c1 | i | 1.04
CCc1nc(CN2C(=O)COc3cc(S(=O)(=O)N4CCOCC4)c(Cl)cc32)no1 | i | 0.77
COc1cccc(OC)c1C(=O)NCCc1sc(-c2ccc(F)cc2)nc1C | i | -0.16
COc1cc(NC(=O)NCC(c2ccc(OC)c(OC)c2)c2c[nH]c3ccccc23)cc(OC)c1 (configuration not stated) | i | 0.95
CCc1onc(C)c1C1CCCN1Cc1ccc(C(=O)OC)cc1 (configuration not stated) | i | -0.07
CC(=O)N1CC(C)(C)c2cc(S(=O)(=O)N3CCOCC3)ccc21 | i | -0.73
CCN(CCN(C)C)c1ncc(NS(=O)(=O)c2cc(C)c(C)cc2C)cc1C(=O)O | i | -0.22
CS(=O)(=O)c1nc2ccc(NS(=O)(=O)c3cccc4nsnc34)cc2s1 | i | 0.12
CCc1cc(C2CCCN2S(=O)(=O)c2cc3c(cc2Br)CCN3C(C)=O)on1 (configuration not stated) | i | 0.94
c1cc(-c2nc3c(c(NCC4CCCO4)n2)CCC3)ccn1 (configuration not stated) | i | 0.86
Cc1cc(N2CCN(c3ccccn3)CC2)n2nc(-c3ccccc3)c(C)c2n1 | i | -0.08
(list continues)
SMILES | Anaer choline gr | Anaer choline gr early
CCCCC[C@@H](O)/C=C/[C@H]1C(=O)C[C@H](O)[C@@H]1C/C=C\CCCC(=O)O | i | 0.43
Cc1c(C2CCN(S(=O)(=O)c3ccc4c(c3)CC(=O)N4C)CC2)c2ccccc2n1Cc1ccc(F)cc1 | i | 0.33
CCN1CCN(c2cc(C)nc3nc(CN4CCN(C(C)C)CC4)nn23)CC1 | i | -1.36
Cc1ccc2cc3c(nc2c1)N(C(=O)C(C)C)CC3 | i | 1.07
O=C(c1ccc(S(=O)(=O)c2ccccc2)nc1)N1CCN(Cc2ccccc2)CC1 | i | 0.96
CCc1nnc(-c2ccsc2)o1 | i | -1.22
O=C(CSc1nnc(CCN2CCOCC2)o1)Nc1ccccc1 | i | -1.27
Cc1cc(C)cc(N(CC(=O)N2CCC(Cc3ccccc3)CC2)S(=O)(=O)c2c(C)noc2C)c1 | i | -1.17
CCCNC(=O)Nc1cccc(-c2noc(Cc3ccc(F)cc3)n2)c1 | i | 1.54
COc1ccc(CNC(=O)c2cc3n(n2)CC(C)(C(=O)NC2CCCCC2)N(C)C3=O)cc1 (configuration not stated) | i | -1.18
COc1ccc(N2CCN(C(=O)c3cn(C)c(=O)c4c3c3ccccc3n4C)CC2)cc1 | i | -0.3
Cc1ccc(S(=O)(=O)N2CCn3cccc3C2c2ccccc2)cc1 (configuration not stated) | i | 0.49
COc1cc2c(=O)n(Cc3ccc(C(=O)NC4CC4)cc3)c(=O)n(Cc3ccc(Cl)cc3)c2cc1OC | i | -0.44
COc1ccc(Cl)cc1S(=O)(=O)Nc1cccc(-c2ccc3ccccc3n2)c1 | i | -0.88
CCOc1ccc(NC(=O)c2nn(C)c(C(F)(F)F)c2Cl)cc1 | i | -1.54
CCCc1cc(C2CCCN2C(=O)Nc2ccccc2)no1 (configuration not stated) | i | -0.53
O=S(=O)(NCCc1n[nH]c(Cc2cccc(F)c2)n1)c1ccc(F)cc1 | i | 0.12
Cc1sc(NC(=O)c2cccnc2)nc1-c1ccc2c(c1)N(C)C(=O)CO2 | i | -0.13
O=S(=O)(c1ccccc1)N1CCOc2ccccc21 | i | -0.89
O=S(=O)(c1ccc(S(=O)(=O)N(Cc2ccccc2)Cc2ccc(F)cc2)cc1)N1CCCC1 | i | 1.09
Cc1ccc(-c2nn3c(-c4ccccn4)nnc3s2)cn1 | i | 0.44
CCC(Oc1ccccc1F)C(=O)Nc1onc2c1CCCC2 (configuration not stated) | i | 0.19
Cc1ccc(-c2nc3sc(CCNS(=O)(=O)c4ccc(Br)cc4)c(C)n3n2)cc1 | i | 1.59
COc1cccc(Cn2c(C)c(C3=CCN(S(=O)(=O)c4cn(C)cn4)CC3)c3ccccc32)c1 | i | 2.05
CCOC(=O)c1c(NC(=O)Cc2nn(C)c(=O)c3ccccc23)sc(C)c1C | i | -0.51
COc1ccccc1OCC(=O)Nc1cc(C)nn1-c1ncnc2c1cnn2-c1ccc(Cl)cc1 | i | 0.05
CCC1CCCCN1S(=O)(=O)c1ccc2c(c1)N(Cc1noc(C)n1)C(=O)CO2 (configuration not stated) | i | -0.2
Cc1ccc(-c2nc3cccnc3n2CCNS(=O)(=O)c2ccc(CC(C)C)cc2)cc1 | i | 0.05
CCSc1nn(CC(=O)Nc2ccc(C(C)C)cc2)c(N)c1S(=O)(=O)c1ccc(OC)cc1 | i | 0.22
O=c1ccn([C@@H]2O[C@H](COP(=O)(O)OP(=O)(O)O)[C@@H](O)[C@H]2O)c(=O)[nH]1 | i | 0.84
COc1ccc(CCNC(=O)CSc2nnc(-c3sc4ccccc4c3Cl)o2)cc1OC | i | 0.78
CNC(=O)CCc1nc2sc3c(c2c(=O)[nH]1)CCC(C(C)(C)C)C3 (configuration not stated) | i | -0.04
CCCNC(=O)Nc1cccc(-c2noc(/C=C/c3ccccc3)n2)c1 | i | -0.56
CC(C)OCCCNC(=O)C(=O)NCc1n[nH]c(=O)c2ccccc12 | i | -0.69
CCOc1ccc2nc(N3CCCC(C(=O)Nc4ccc(CN5CCC(C)CC5)cc4)C3)sc2c1 (configuration not stated) | i | -0.74
O=c1ccc(N2CCCN(S(=O)(=O)c3ccc(Br)cc3)CC2)nn1-c1ccccc1 | i | 0.05
O=C(OCC1CCCO1)c1ccc2c(c1)N(Cc1ccccc1)C(=O)c1ccccc1S2(=O)=O (configuration not stated) | i | 0.57
O=C(CCn1cnc2ccccc2c1=O)Nc1cccc(Br)c1 | i | 0.49
COc1ccccc1NC(=O)NCCn1c(-c2ccc(F)cc2)nc2cccnc21 | i | 1.19
Cc1cc(C(F)(F)F)c2c(C)nn(-c3ccc(C)c(C)c3)c2n1 | i | 0.48
CN1CCN(C(=O)c2cc(-c3cccnc3)n(-c3ccc(F)cc3)n2)CC1 | i | -0.76
O=C(CSc1n[nH]c(-c2ccccc2Cl)n1)NCC1CCCO1 (configuration not stated) | i | -0.17
COc1cccc(N2CCN(c3cc(C)nc4ncnn34)CC2)c1 | i | 0.92
O=S(=O)(c1ccc2c(c1)-c1oncc1CO2)N1CCc2ccccc2C1 | i | -0.25
O=C(CN1CCN(Cc2ccccc2Cl)S1(=O)=O)Nc1ccc(Cl)cc1F | i | 0.64
COc1cccc(CN2C(=O)c3ccccc3Sc3ccc(C(=O)NCc4ccccc4)cc32)c1 | i | 0.72
C=CCn1c(=O)c(C(=O)Nc2ccccc2C)c(O)c2ccccc21 | i | 2.21
Cc1ccc(CN2CCN(C3CCN(C(=O)C(C)C)CC3)C(=O)C2=O)cc1 | i | -0.21

Some of the entries so far, with values under each structure.
The line under a structure holds: Anaer choline gr, Anaer choline gr early
> CCCCc1nc2c3ccccc3n(CC(=O)c3c[nH]c4ccccc34)c(=O)n2n1
  i, -0.36
> Cc1cc(N)c2ccccc2[n+]1CCCCCCCCCC[n+]1c(C)cc(N)c2ccccc21
  i, -1.55&-2.99
> COC(=O)c1ccc2c(=O)n(CCN3CCc4ccccc4C3)c(=S)[nH]c2c1
  i, 1.2
> O=C(NCCN1CCCC1)c1ccc(NC(=O)N2CCCCc3ccccc32)cc1
  i, 1.14
> CCOC(=O)c1nc(NC2CC2)c2c(C)noc2n1
  i, -2.61
> CCC(C)Cn1c(C2CCCO2)nc2ccccc21 (configuration not stated)
  i, 0.04
> CCOC(=O)c1ccc(Nc2c(CC)c(C)nc3nc(-c4ccccc4)nn23)cc1
  i, 0.22
> COCCn1c(CNC(=O)c2ccccc2Br)nc2cccnc21
  i, -0.04
> CCN(CC)CCCNC(=O)C1CCN(c2ccc3nnc(C)n3n2)CC1
  i, 0.16
> O=C(CSc1nnc2n1CCN2c1ccccc1)OCc1ccccc1
  i, 0.48
> CCS(=O)(=O)c1nc2ccc(NS(=O)(=O)c3c(C)n[nH]c3C)cc2s1
  i, 0.04
> CCCCC/C=C\C\C=C/C=C/C=C/[C@@H](SC[C@H](N)C(=O)NCC(=O)O)[C@@H](O)CCCC(=O)O
  i, 0.41
> Cc1sc(-c2noc(C3CC3)n2)cc1S(=O)(=O)N1CCC(C(=O)NC2CCC(C)CC2)CC1 (configuration not stated)
  i, 0.27
> COc1ccc(-c2ccc(=O)n(CCNS(=O)(=O)c3ccc4c(c3)CCN4C(C)=O)n2)cc1
  i, -0.23
> CCCn1c(=O)c(-c2ccc(C(=O)N3CCN(c4ccccc4F)CC3)cc2)nc2ccccc21
  i, -0.19
